Source: PubChem (National Center for Advancing Translational Sciences (NCATS))
AID923 – qHTS Assay for Allosteric/Competitive Inhibitors of Caspase-1: Spectroscopic Profiling in AFC Spectral Region; compound fluorescence, AFC spectral region (405/520 nm); almost no hit is shown here; Potency, µM (doses to about 57.5 µM), inactives show top-dose fluorescence increase, actives largely listed as activators; 75,000 compounds, 1.1% hits; AID 923, 2007; active means well fitted activation curve with a large enough effect; inconclusive means small, poorly fitted or top-dose-only effect;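 further: potency means the concentration at half of the fitted maximal effect; 0% is about no effect; scaled to a free AFC standard on each plate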
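Compound autofluorescence profiled at 405 nm ex/520 nm em during kinetic caspase 1 run (50 nM enzyme, 5 uM Ac-WEHD-AFC, HEPES pH 7.5, 10 mM DTT). Titration up to 57 uM; baseline from regression intercept, normalized to AFC standard curve.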
A488 fluor – compound fluoresces in the A488 spectral region; compound autofluorescence, A488 spectral region, dye equivalency; hits give high values; max dye equivalency, M; 59,000 compounds, 0.1% hits; active = above 10 nM dye equivalent; inconclusive = 1 to 10 nM; inactive = 1 nM or less; about half of its hits are not listed in these tables;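 further: highest value over a series up to 38 µM; compound alone in buffer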
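Autofluorescence read at ex 480/em 540 nm after 15 min RT in 100 mM Tris pH 8.0; compound signal normalized to A488 standard series on each plate, reported as dye-equivalent concentration at each test concentration.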
TSHR ag – TSH receptor (human) agonism; AID 926; Potency, µM (titrated, usually from 57.1 µM), without a hit: at the highest dose activation, hits mostly activators; P16473; 73,000 compounds, 0.48% hits; HEK293-CNG-TSHR cells (CNG channel as cAMP sensor), membrane potential dye, cAMP; active = well fitted activation curve of enough size with the parental cells flat; inconclusive = any curve in the parental cells; inactive = parental cells flat and receptor cells flat or falling; further: potency means the concentration at half of the fitted maximal effect; % of control where 0% means no effect; weak receptor curves with flat parental cells got no call and are not listed
Target sequence (P16473 whole entry, looked up): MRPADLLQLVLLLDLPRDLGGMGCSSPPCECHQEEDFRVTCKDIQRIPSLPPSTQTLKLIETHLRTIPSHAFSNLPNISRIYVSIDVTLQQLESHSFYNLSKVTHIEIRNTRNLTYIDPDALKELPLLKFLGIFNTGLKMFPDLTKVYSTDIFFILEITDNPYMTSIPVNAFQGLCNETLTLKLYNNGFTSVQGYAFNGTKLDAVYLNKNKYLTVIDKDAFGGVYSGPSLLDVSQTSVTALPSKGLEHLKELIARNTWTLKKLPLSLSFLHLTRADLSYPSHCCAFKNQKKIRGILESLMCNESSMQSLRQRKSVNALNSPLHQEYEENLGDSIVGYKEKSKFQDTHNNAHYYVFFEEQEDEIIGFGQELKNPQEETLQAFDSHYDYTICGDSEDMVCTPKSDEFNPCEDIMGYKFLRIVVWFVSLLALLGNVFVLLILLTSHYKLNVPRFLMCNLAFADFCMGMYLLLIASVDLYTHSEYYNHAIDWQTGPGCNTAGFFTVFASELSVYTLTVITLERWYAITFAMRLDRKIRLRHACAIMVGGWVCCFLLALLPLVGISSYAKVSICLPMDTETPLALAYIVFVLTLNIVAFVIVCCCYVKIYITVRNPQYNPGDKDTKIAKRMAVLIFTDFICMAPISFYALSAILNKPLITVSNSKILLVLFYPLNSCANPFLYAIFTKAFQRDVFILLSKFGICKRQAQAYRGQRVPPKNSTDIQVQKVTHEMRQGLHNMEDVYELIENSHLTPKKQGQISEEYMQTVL
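cAMP rise detected as CNG-channel membrane depolarization by fluorescent dye (emission 590 nm), 30 min after compound, following 60 min dye loading containing 100 uM RO 20-1724 at room temperature. Cells: TSHR/CNG HEK 293, with parental CNG HEK 293 as control.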
Resorufin autofl – resorufin region autofluorescence | Compound fluorescence, resorufin region 547/598 nm, buffer; hits give high values | AID 588 | max dye-equivalent concentration, M | 59,000 compounds, 0.04% hits; active = above 10 nM dye equivalent; inconclusive = 1 to 10 nM; inactive = 1 nM or less; a few of its hits are not listed in these tables; further: highest value over a series up to 38 µM
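Dye-equivalent concentration values derive from comparing each well's 547/598 nm fluorescence against resorufin standards included on every plate. Incubation was 15 min at room temperature in 100 mM Tris, pH 8.0.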
A647 autofl – A647 region autofluorescence | Compound fluorescence, A647 channel (570/671 nm), Tris buffer | max dye-equivalent concentration, M | 59,000 tested, under 10 active | AID 592; active means above 1 µM dye equivalent; inconclusive means 0.1 to 1 µM; inactive means 0.1 µM or less;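 further: values scaled relative to a standard on each plate; highest value over a series up to 38 µM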
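Buffer was dispensed, compounds and Alexa 647 standards were pin-transferred, and plates sat 15 min at room temperature. Intensity at 570/671 nm was then converted to dye-equivalent concentration using the plate's A647 standard curve.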
* = called active by the depositor; i = inactive; u = inconclusive; x = not tested or not shown; & = joins results of further samples; [ ] = dose if it differs, or a comment.

nr | molecule | TSHR ag | Resorufin autofl | AID923 | A488 fluor | A647 autofl
1 | CCCCN(CC)C(=O)CSc1cc(=O)n(C)c2ccccc12 | 0% | i | -1.1% | i | 1.1e-08
2 | COC(=O)NC(c1ccccc1)C(C(=O)OC)C(=O)OC (centres undefined) | u | x | 1.3%[11.5 µM] | x | x
3 | CCOC(=O)/C=C1\SCC(=O)N1Cc1ccc(Br)cc1 | 14% | i | 1.2% | i | 1e-09
4 | CCCCn1nnnc1SCC(=O)Nc1ccc2c(c1)OCCO2 | 4% | i | 0.4% | i | 1.2e-08
5 | c1ccc(CNCCN2CCNCC2)nc1 | u | i | 1.4%[11.5 µM] | i | 3.4e-08&3e-08
6 | Cc1c(Cl)cccc1NC(=O)CN1C(=O)CSc2ncccc21 | 23% | x | 2.4% | x | x
7 | COCCSc1ccccc1C(=O)N1CCCC1 | -1% | i | 3.8% | i | 3.6e-09
8 | CCN(C(=O)c1ccccc1Cl)c1ccccc1 | -5% | i | -0.1% | i | 1e-09
9 | COc1ccc(C[C@H](O)CN2CCOCC2)cc1 | 6%[11.4 µM] | i | -1.5%[11.5 µM] | i | 1.5e-09
10 | O=C(NC1=NCCS1)c1cc(-c2ccccc2)nn1-c1ccccc1 | 9% | i | 2.3% | i | 1e-09
11 | Cc1ccc(CN2C(=O)CCC2C(=O)NC2CC2)cc1 (centres undefined) | -2% | i | 1.6% | i | 4.9e-08
12 | O=C(Nc1ccccc1O)c1cc(S(=O)(=O)N2CCOCC2)ccc1Cl | -2% | i | 2.5% | i | 2.1e-08
13 | CCOC(=O)C(C(C)=O)c1c(Br)c(O)c(O)c2c(C(=O)c3ccc(C)cc3)coc12 (centres undefined) | 11% | i | -0.6% | i | 3.6e-08
14 | Cc1ccc(CNC(=O)Cn2ccc3ccccc3c2=O)o1 | 5%[11.4 µM] | i | -0.1% | i | 4.3e-09
15 | Cc1nc2sc3c(c2c2nc(-c4ccco4)nn12)CCCC3 | u | i | -3.5% | i | 2.8e-09
16 | COc1ccccc1CN1CC[C@@]2(CCCN(C(=O)c3cccn3C)C2)C1 | 11% | i | -2.2% | i | 5.4e-09
17 | O=C(NC1CCCC1)C1CCCN(S(=O)(=O)c2ccc(-n3cnnn3)cc2)C1 (centres undefined) | 6% | i | -1.0% | i | 8.1e-09
18 | Nn1c(SCC(=O)Nc2ccc(Oc3ccccc3)cc2)nnc1C1CC1 | -2% | i | 0.8% | i | 3.9e-08
19 | NC(=O)c1cccc2c(=O)oc3ccccc3c12 | 1% | i | 1.2% | i | 1e-09
20 | CCOc1ncccc1C(=O)OCc1ccc(C(=O)OC)o1 | 6% | i | 1.0% | i | 1.9e-09
21 | CSc1nc2ccccc2n1CC(=O)Nc1c(C)n(C)n(-c2ccccc2)c1=O | 7% | i | -1.3% | i | 1e-09
22 | COC(=O)C1(CC(C)C)C=C2C(=C(C(C)C)C(=O)C2C)CN1 (centres undefined) | u | x | 8.6% | x | x
23 | Cc1onc(-c2ccccc2)c1C(=O)Nc1nc(-c2ccc(F)c(F)c2)cs1 | 24% | i | -0.3% | i | 1.5e-08
24 | Cc1ccc2nc3nc4ccc[nH]c4cc3c2c1 | 11%[11.4 µM] | x | 3.4%[11.5 µM] | x | x
25 | O=C(NCCCN1CCN(c2cccc(Cl)c2)CC1)C1CCC(=O)N1Cc1ccccc1Cl (centres undefined) | u | i | -0.3% | i | 8.8e-09
26 | COc1ccccc1-n1c(SCC(=O)N2CCOCC2)nc(O)c(Cc2ccccc2)c1=O | 3% | i | 0.0% | i | 6.3e-09
27 | COc1ccc(N(C(=O)Cn2nnc3ccccc32)C(C(=O)NCc2ccco2)c2ccc(C)o2)cc1 (centres undefined) | 25µM* | i | 0.1% | i | 1.8e-08
28 | Cn1c(C(=O)NCc2cccs2)cc2c(=O)n(C)c3ccccc3c21 | -4% | x | 0.1% | x | x
29 | COc1ccc(-n2cnnc2SCc2ncc(-c3ccccc3)o2)cc1 | 12% | i | -0.9% | i | 3.3e-08
30 | CCOc1ccc(Cc2nnc(N)s2)cc1OCC | 4% | i | 1.1% | i | 1e-09
31 | COc1ncc2nc(C)c(=O)n(Cc3cccs3)c2n1 | x | i | 1.2% | i | 1.9e-08
32 | Cc1cccc(Br)c1 | 0% | x | 1.8% | x | x
33 | Cc1cc(NC(=O)c2cc(S(=O)(=O)N3CCCCC3)ccc2C)n(-c2ccccn2)n1 | u | i | -2.1% | i | 1.6e-08
34 | COc1ccc(CN(C#N)c2nc(SC)nc(N(C)C)n2)cc1 | x | i | x | i | 9.6e-08
35 | CCOC(=O)N1CCC(N2Cc3cccc(C(=O)N4CCN(C5CCCCC5)CC4)c3C2=O)CC1 | -1% | x | 1.1% | x | x
36 | Cc1n[nH]c(=S)n(/N=C/c2ccccn2)c1=O | 4% | x | 2.1% | x | x
37 | O=C1Nc2ccccc2C1=Nc1ccc(S(=O)(=O)Nc2nccs2)cc1 | 0%[11.4 µM] | i | -2.1%[11.5 µM] | i | 6.2e-08
38 | Cc1ccc(C(=O)OCc2cc3ccccc3[nH]c2=O)cc1 | 16% | i | -0.5% | i | 5.6e-09
39 | CCOC(=O)c1c(C)[nH]c(C(=O)COC(=O)C2CC(=O)N(Cc3ccccc3)C2)c1C (centres undefined) | 8% | i | -1.9% | i | 1e-09
40 | FC(F)(F)c1cc(CO[C@H]2CCCN[C@H]2c2ccccc2)cc(C(F)(F)F)c1 | u | x | -2.4% | x | x
41 | O=C(O)CSc1ccccc1C(=O)O | 9%[11.4 µM] | i | -3.0%[11.5 µM] | i | 9e-09
42 | C=CCNC(=O)CNS(=O)(=O)c1ccc(F)cc1 | 6% | i | -2.3% | i | 2.8e-08
43 | Clc1ccc2c(c1)c1ccccc1n2CN1CCOCC1 | x | i | -0.5% | i | 1.6e-08
44 | c1ccc(CNc2ncncc2-c2ccc3c(c2)OCO3)cc1 | u | i | 4.3% | i | 1.5e-09
45 | CC(C)Sc1nc(-c2cccs2)nc2c1c(=O)n(C)c(=O)n2C | -4% | x | -3.3% | x | x
46 | CCOC(=O)C1CCN(C(=O)Cc2c(C(=O)O)n(C)c3ccccc23)CC1 | 0% | i | 0.9% | i | 1e-09
47 | COc1ccc2[nH]c(=O)c(CN(Cc3nnnn3CCc3ccccc3)CC3CCCO3)cc2c1 (centres undefined) | 14% | i | -0.1% | i | 5.7e-08
48 | COC(=O)N1CCC[C@@]2(CCN(C(=O)Nc3ccc(OC)cc3)C2)C1 | 4% | i | 0.0% | i | 4e-09

Some of these compounds in order of molar mass, rising:
nr | molecule | TSHR ag | Resorufin autofl | AID923 | A488 fluor | A647 autofl
41 | O=C(O)CSc1ccccc1C(=O)O | 9%[11.4 µM] | i | -3.0%[11.5 µM] | i | 9e-09
45 | CC(C)Sc1nc(-c2cccs2)nc2c1c(=O)n(C)c(=O)n2C | -4% | x | -3.3% | x | x
47 | COc1ccc2[nH]c(=O)c(CN(Cc3nnnn3CCc3ccccc3)CC3CCCO3)cc2c1 (centres undefined) | 14% | i | -0.1% | i | 5.7e-08

(next part)
nr | molecule | TSHR ag | Resorufin autofl | AID923 | A488 fluor | A647 autofl
49 | N/C(=N\c1nc2ccccc2o1)NC(=O)c1ccccc1NC(=O)c1ccccc1 | x | i | x | i | 4.9e-08
50 | CCOCCCNC(=O)C1CCCN(S(=O)(=O)CC)C1 (centres undefined) | u | i | -0.2% | i | 8.3e-09
51 | O=C(CCc1nc(-c2ccc(Cl)cc2)no1)OCc1ccc(Br)cc1 | -11% | i | -2.0% | i | 1.1e-08
52 | CCOc1cccc(C(=O)NC2CCCCC2)c1 | 5% | i | -1.3% | i | 1e-09
53 | CN(c1ccccc1C(=O)Nc1ccc2c(c1)OCCO2)S(C)(=O)=O | x | i | 1.5% | i | 3.9e-08
54 | CCCn1cc2c(c1-c1cccc(C)c1)c(=O)n(C)c(=O)n2C | 17% | i | -0.7% | i | 5.4e-09
55 | O=S(=O)(Nc1ccccn1)c1ccc(C2CCCCC2)cc1 | 13% | i | -0.7% | i | 2.4e-08
56 | COCCCNC(=O)c1cn(C)c(=O)c2cc(OC)c(OC)cc12 | 7%[11.4 µM] | i | 1.3% | i | 3e-08
57 | Oc1c(Br)cc(CN(Cc2cc(Br)c(O)c(Br)c2)C2CCCCC2)cc1Br | 1%[11.4 µM] | i | -0.1%[11.5 µM] | i | 1.9e-08
58 | O=C(CSc1nnc(Cc2ccccc2)o1)N1CCc2ccccc21 | 8% | i | -2.3% | i | 3.8e-08
59 | COc1ccccc1CNc1ncnc2ccc(-c3ccc4c(c3)OCO4)cc12 | u | i | -0.8% | i | 3.1e-08
60 | CC1CCN(CCCNC(=O)c2cc3c(=O)n(C)c4ccccc4c3n2C)CC1 | -17% | x | 0.7% | x | x
61 | CC(C)(C)NCC(O)c1cc(O)cc(O)c1 (centres undefined) | x | i | u | i | 1e-09
62 | CCOC(=O)c1ccc(NC(=O)CSCc2ccco2)cc1 | 9%[11.4 µM] | x | 2.0% | x | x
63 | O=C(O)CCC(=O)N1CCN(c2ccc(C(=O)c3ccc(F)cc3)cc2)CC1 | -23% | i | 1.5% | i | 1.5e-09
64 | O=C(CSc1nnc(-c2ccccn2)n1Cc1ccco1)c1ccc(Cl)cc1 | u | i | -1.0% | i | 6.7e-09
65 | CCN(CC)S(=O)(=O)c1cccc(-c2nnc(SCC(=O)c3ccc(Cl)s3)n2C)c1 | x | i | -0.1% | i | 3.1e-08
66 | COc1ccc(OC)c(S(=O)(=O)NCC2CCCO2)c1 (centres undefined) | -4% | x | -2.1% | x | x
67 | CCP(=O)(CC)c1cccc(N)c1 | -4% | i | 0.8% | i | 6.1e-09
68 | CCOC(=O)c1c(N=CN(C)C)c(C#N)n2c1CCC2 | -2% | x | -0.2% | x | x
69 | COC(=O)c1c(NC(=O)CC2NCCNC2=O)sc2c1CCCC2 (centres undefined) | -16% | i | -0.3% | i | 4.9e-09
70 | Cc1onc(-c2c(F)cccc2Cl)c1C(=O)OCC(=O)NCc1ccco1 | 17% | i | 0.1% | i | 1e-09
71 | O=C(CC1Oc2ccccc2NC1=O)NC1CCCC1 (centres undefined) | 0% | x | 0.5% | x | x
72 | Cc1c(C)c2c(C)[nH]nc2oc1=O | 11% | i | 0.1% | i | 8.7e-09
73 | CCc1c(C)nc2ncnn2c1N1CCCC(C(=O)NCCc2ccc(OC)cc2)C1 (centres undefined) | -7% | i | -0.6% | i | 1.1e-08
74 | CCOC(=O)c1[nH]c2c(c1C)C(=O)CC(c1ccc(N(C)C)cc1)C2 (centres undefined) | 8% | x | 1.0% | x | x
75 | Cn1cc(C(=O)NCCN2CCN(c3ccccc3F)CC2)c2c3ccccc3n(C)c2c1=O | -4% | i | -0.7% | i | 2.1e-08
76 | CCN(CCCNC(=O)C1CCN(S(=O)(=O)CC)CC1)c1ccccc1 | 3% | i | 1.0% | i | 1.7e-08
77 | Cc1n[nH]c(C)c1S(=O)(=O)N1CCCC(C(=O)NCc2cccs2)C1 (centres undefined) | 2% | i | -0.1% | i | 1.1e-08
78 | COc1cccc(C(=O)Nc2ccc(NC(=O)c3ccco3)nc2)c1 | u | i | 1.1% | i | 1e-09
79 | Cc1ccc2c(c1)CN1CN2Cc2cc(C)ccc21 | 11% | x | 0.1% | x | x
80 | Cc1ccc(-c2nn3c(-c4cccc(Cl)c4)nnc3s2)cc1 | x | i | x | i | 5e-09
81 | COc1ccc(OCCC(=O)N2CCCCC2)cc1 | 1% | i | 1.7% | i | 5.7e-09
82 | COc1ccc(-c2cc(C(F)(F)F)n3ncc(C(=O)O)c3n2)cc1OC | -4% | i | 12% | i | 1e-09
83 | CN1CCC(OC(c2ccccc2)c2ccccc2)CC1 | 1%[25.6 µM] | i | -2.1% | i | 2.5e-08
84 | CCOC(=O)c1[nH]c2ccc(OCC)cc2c1NC(=O)CN1CCN(c2ccccn2)CC1 | -7% | i | -0.9% | i | 2.7e-09
85 | CCOc1ccc2nc(NCCNC(=O)C(C)C)c(C)cc2c1 | u | i | -1.6% | i | 9.7e-09

This is a subset, so the mix of outcomes need not match the whole.
